From PubChem
CDC25B-CDK2 inh: human CDC25B-CDK2/CyclinA binding inhibition | HTRF CDC25B-CDK2/CyclinA binding, anti-His/anti-Flag; hits give high values | AID 1259370 | P30305+P24941 | 0.72% of 94,000 active | z-score (test concentration not listed);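 further: score is relative to mean and SD of negative controls; strong numbers were not always called active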
HIV TAR-Tat: HIV-1 TAR-Tat binding disruption; HIV-1 TAR RNA, Tat peptide displacement FRET; hits give high values; z-score (test concentration not listed); 0.6% of 100,000 active;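 further: score is relative to mean and SD of negative controls; some compounds called inactive have numbers as strong as hits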
* = called active by the depositor; . = not tested or not shown.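 How the source made its calls: active means z-score from 3 up in half or more of its runs; inactive means the rest.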

compound	CDC25B-CDK2 inh	HIV TAR-Tat
COCCCN1C(=O)C(=O)/C(=C(/O)c2ccccc2)C1c1ccc(OC)cc1 (stereo unspecified)	-0.88	1.6
CN(Cc1ccc(-n2cccn2)cc1)C(=O)c1cnn2c1NC(c1ccco1)CC2C(F)(F)F (stereo unspecified)	-0.58	3.5
CCN1CCCC1CNC(=O)CCCn1c(C)c2cnn(-c3ccccc3)c(=O)c2c1C (stereo unspecified)	-0.44	-0.16
Cc1cc(C)n2nc(SCc3cc(=O)n4cc(Br)ccc4n3)nc2n1	-1.1	.
OCCOCCNc1ncnc2c1cnn2-c1ccc(F)cc1	.	1.2
CN(C)NC(=O)c1csnc1-c1c(Cl)cccc1Cl	-1.5	.
Cn1cc(S(=O)(=O)N2CCc3ccccc32)cc1C(=O)N1CC=C(c2ccccc2)CC1	-0.38	1.7
CCCCN(CC)S(=O)(=O)c1ccc2c(c1)C(C)(C)C(=O)N2C	.	1

A run of entries from further up, for reference:
compound	CDC25B-CDK2 inh	HIV TAR-Tat
CN(Cc1ccc(-n2cccn2)cc1)C(=O)c1cnn2c1NC(c1ccco1)CC2C(F)(F)F (stereo unspecified)	-0.58	3.5
CCN1CCCC1CNC(=O)CCCn1c(C)c2cnn(-c3ccccc3)c(=O)c2c1C (stereo unspecified)	-0.44	-0.16
Cc1cc(C)n2nc(SCc3cc(=O)n4cc(Br)ccc4n3)nc2n1	-1.1	.
OCCOCCNc1ncnc2c1cnn2-c1ccc(F)cc1	.	1.2

(listing goes on)
compound	CDC25B-CDK2 inh	HIV TAR-Tat
NC(=O)c1cccc2c3c([nH]c12)CCCC3	0.93	-2.5
COc1ccccc1NC(=O)NC(C)c1c(-n2cccc2)sc2c1CCCC2 (stereo unspecified)	1.3	1.1
O=C(Nc1cccc(O)c1)c1nc(-n2cnnc2)ccc1Br	.	1.2
O=C(CCCn1sc2ccccc2c1=O)NC1CCCCCC1	-2.2	.
CC(C)c1ccc(C2c3c(oc4ccccc4c3=O)C(=O)N2c2nncs2)cc1 (stereo unspecified)	-0.18	0.06
CCCN(CCC)c1nn2c(=O)c(C(=O)NCC)cnc2s1	.	1
CSc1nn(CC(=O)Nc2ccc(F)cc2)c(N)c1S(=O)(=O)c1ccc(Cl)cc1	.	0.77
Cc1ccc(-c2csc3c2ncn2c(=O)n(CC(=O)Nc4c(C)cc(C)cc4C)nc32)cc1	.	0.31
Cc1ccc(C2=NN(c3nc(-c4ccc(C)c(C)c4)cs3)C(c3ccc(Cl)cc3)C2)cc1 (stereo unspecified)	-0.33	.
COC(=O)c1ccc(C2C3=C(CC(c4ccc(OC)cc4)CC3=O)Nc3ncnn32)cc1 (stereo unspecified)	-1.7	2.1
COc1cc(NC(=O)c2ccccc2)c(C)cc1NC(=O)COc1ccc(Cl)cc1Cl	-1.6	.
CCOC(=O)c1c(NC(=O)CCNS(=O)(=O)c2ccc(Cl)cc2)sc(C)c1C	-2	.
COC(=O)CSc1nc(N)c2c3c(sc2n1)COC(C(C)C)C3 (stereo unspecified)	-2.9	.
CCNc1nc(-c2ccccc2F)no1	.	1.2
CC1(C)CC(=O)C=C(Nc2ccccc2)C1	-1.5	-1.3
COC(=O)CCC1CC2(CCC1=O)OCCO2 (stereo unspecified)	-0.82	.
COC(=O)c1c(-c2ccc(Br)cc2)noc1N	-1.3	2.5
O=S(=O)(NCCc1csc(-c2ccc(Cl)cc2)n1)c1cc(F)ccc1F	.	-0.12
CC1(C)CC(=O)C2=C(C1)Nc1ccccc1NC2c1cc(Cl)ccc1O (stereo unspecified)	-1.1	1.5
COc1ccccc1-c1cc(C(F)(F)F)n2ncc(C(=O)N3CCCC3c3ccco3)c2n1 (stereo unspecified)	-0.03	2.2
O=[N+]([O-])c1ccc(N2CCCC2)c(Cn2ccnc2)c1	-1.1	.
CCN1CCN(c2nc(N(C)C)nc3c2cnn3C)CC1	.	1.5
Cc1nc(N2CCCC2)cc(N2CCN(C(=O)Nc3ccc(Cl)cc3)CC2)n1	-1.6	1.2
CC1(C)S[C@@H]2[C@H](NC(=O)C(C(=O)O)c3ccccc3)C(=O)N2[C@H]1C(=O)O (stereo partly specified)	.	0.47
Cc1cccc(N2CCN(c3ncnc4c3nc3n4CCCCC3)CC2)c1C	.	0.78
CC(C)(C)S(=O)(=O)/C(C#N)=C/N1CCCCC1	-1.8	.
CC1(C)C2C[C@@H](O)[C@]3(C)C(CC[C@@]4(C)[C@H](c5ccoc5)OC(=O)C5OC543)[C@@]2(C)C(=O)C[C@H]1O (stereo partly specified)	.	2.5
CC(C)(C)SCC(=O)Nc1cc(C(F)(F)F)ccc1Oc1ccc(C#N)cc1	0.04	.
CCOc1cc(C2NC(=O)NC(O)(C(F)(F)F)C2C(=O)c2ccc(Cl)cc2)ccc1O (stereo unspecified)	-3.5	.
Cc1cc(C)c(NC(=O)c2cc3c(=O)n4ccccc4nc3n2C)c(C)c1	.	1.7
COc1ccc(N2C(=O)C3CCCCC3C2=O)c(OC)c1 (stereo unspecified)	-3	.
Cc1ccc(C2CC(=O)C3=C(C2)Nc2ccccc2NC3c2cccc(F)c2)cc1 (stereo unspecified)	-3	.
Cn1c2ccccc2c2nnc(SCC(=O)Nc3nnc(COc4ccccc4)s3)nc21	-1.4	-0.59
CCOC(=O)C1CCN(S(=O)(=O)Cc2ccccc2)C1=O (stereo unspecified)	-0.36	.
Cc1ccc2[nH]c(CSc3ccccc3)cc(=O)c2c1	.	-0.93
O=C(c1cc2n(n1)C(C(F)(F)F)CC(c1ccco1)N2)N1CCCCC1 (stereo unspecified)	-2.2	-0.37
COC(=O)c1cc(-c2ccc(OC)c(OC)c2)n[nH]1	-0.61	.
CC1Cc2cc(S(=O)(=O)N3CCCc4ccccc43)ccc2N1C(=O)C1CC1 (stereo unspecified)	.	-1
Cn1c(=O)c2c(SCC(=O)N3CCc4ccccc43)nc(C3CC3)nc2n(C)c1=O	.	0.55
COC(=O)C1=C(C)N=C2SCCC(=O)N2C1c1ccc(C)cc1 (stereo unspecified)	-0.02	-0.13
Cc1ccc(CN2COc3ccc4c(oc(=O)c5ccccc54)c3C2)cc1	0.01	0.35
CCOCCCNC(=O)Cn1cc2c(n1)-c1c(oc(C(=O)N3CCCC3)c1C)CC2	.	2.4
c1ccc(CCn2c3ccccc3c3nnc(SCCN4CCOCC4)nc32)cc1	0.86	1.2
CCOC(=O)c1cn[nH]c1S(=O)(=O)N1CCOCC1	.	1.4
CN(C)c1ccc(NC(=O)c2cn(-c3ccc(F)cc3)nn2)cc1	-0.83	1.2
Cn1ccnc1SCC(=O)Nc1ccc(F)c(F)c1	-2.4	-0.05
Cc1nc2c(c(C)nn2C(C)(C)C)c(C)c1CCC(=O)NCC(N)=O	-0.92	-0.15
C(=N\NC1=NCCN1Cc1ccccc1)/c1ccc2c(c1)OCO2	-1	.

Given field by field: 3 of the compounds above.
Cc1nc2c(c(C)nn2C(C)(C)C)c(C)c1CCC(=O)NCC(N)=O
- CDC25B-CDK2 inh: -0.92
- HIV TAR-Tat: -0.15
CCOC(=O)c1cn[nH]c1S(=O)(=O)N1CCOCC1
- CDC25B-CDK2 inh: .
- HIV TAR-Tat: 1.4
CCOCCCNC(=O)Cn1cc2c(n1)-c1c(oc(C(=O)N3CCCC3)c1C)CC2
- CDC25B-CDK2 inh: .
- HIV TAR-Tat: 2.4

Further structures.
compound	CDC25B-CDK2 inh	HIV TAR-Tat
COC(=O)c1cc2ccccc2c(=O)s1	-2.6	.
Cc1ccc(NS(=O)(=O)c2ccc3c(c2)CCN3S(C)(=O)=O)c(C)c1	.	1.5
COc1ccc(OC)c(CN2CCc3nc(N4CCN(c5ccccc5F)CC4)ncc3C2)c1	.	0.93
CCCSCCCNC(=O)Cn1ncn2cccc2c1=O	-1.4	1.7
CSCCC(NS(=O)(=O)c1ccc2c(c1)oc(=O)n2C)C(=O)Nc1cccc(F)c1 (stereo unspecified)	-1.1	0.76
COc1ccc(N2CCN(c3csc4ccccc4c3=O)CC2)cc1	.	0.11
Cc1ccc(C)n1-c1nnc(N2CCCC(C(=O)N3CCOCC3)C2)s1 (stereo unspecified)	0.63	1.3
C=CCOc1ccc(C2c3c(oc4ccccc4c3=O)C(=O)N2c2nncs2)cc1OCC (stereo unspecified)	0.28	-0.62
CN(C)/C=C/C(=O)c1cc(C(C)(C)C)cc(C(C)(C)C)c1O	-1.2	.
COc1cccc(OC)c1C(=O)Nc1ccnn1C	-0.48	.
CC(=O)NCCN1C(=S)N(c2ccc(Cl)cc2)C(=O)C1CC(=O)Nc1ccc(F)cc1 (stereo unspecified)	0.06	.
CCCC(=O)N(Cc1nc2nc(C)cc(=O)n2[nH]1)c1ccc(Cl)cc1	-0.34	-0.39
CCCNC(=O)C1CCCN(S(=O)(=O)c2cccc3nsnc23)C1 (stereo unspecified)	-0.98	.
COC(=O)c1cc(S(=O)(=O)Nc2cccc(Br)c2)c[nH]1	.	0.88
O=c1ccc(-c2ccc(S(=O)(=O)N3CCN(c4cccc(Cl)c4)CC3)s2)n[nH]1	.	-0.25
CC(NCc1ccccc1O)C(=O)O (stereo unspecified)	-0.26	.
CCc1ccc(S(=O)(=O)NCc2cccn2Cc2ccc(Cl)cc2)cc1	.	0.8
CC1C(=O)N(C)C(=O)c2nc[nH]c21 (stereo unspecified)	-0.04	.
CCOC(=O)C(NC(=O)c1cccc(C)c1)(Nc1cc(C)on1)C(F)(F)F (stereo unspecified)	-0.91	.
CC1(C)CC(=O)C2=C(C1)Nc1ccccc1N(C(=O)c1ccccc1)C2c1cccs1 (stereo unspecified)	.	1.1
N#Cc1nc(COc2ccc(F)cc2)oc1NCc1ccc(F)cc1	9	0.95
Cc1cc(C(=O)C(=O)Nc2nnc(-c3ccco3)s2)c(C)n1-c1cccc(Cl)c1	-0.62	8.6*
O=C(C1CCN(c2ncnc3c2sc2cccc(F)c23)CC1)N1CCN(c2ccccc2)CC1	-6.3	0.19
Cc1cc2c(nc1C)sc1c(=O)n(Cc3ccccc3)nnc12	-1.1	3.2
O=C(NCC(c1cccs1)N1CCCC1)c1cc(-c2ccc(Br)cc2)on1 (stereo unspecified)	-0.51	-0.35
Cc1cc(Nc2ccncc2)n2c(nc3ccccc32)c1C#N	-0.14	.
O=C(Cn1c(=O)oc2ccccc21)Nc1nnc(SCc2ccccc2)s1	-1.2	1.1
O[C@H]1C2C3CC4C5C3C1C5C1(OCCO1)C42 (stereo partly specified)	-2.1	.
O=C(O)c1ccc(-c2cc(C(=O)O)c3c(-c4ccc(Br)cc4)[nH]nc3n2)cc1	.	3.1
CCOC(=O)c1c(N)oc2c(-c3ccc(C)cc3)c3c(C(=O)OCC)c(N)oc3cc12	0.49	3
O=c1[nH]nc2ccc(SCc3ccc(Cl)cc3)nn12	-1.2	-0.82
O=C(Cn1ccc2cc(S(=O)(=O)N3CCCCC3)ccc21)NCCCN1CCCC1	.	0.71
Oc1ccc(Cl)cc1-c1cc(-c2ccccc2)n[nH]1	-0.3	-0.42
CN(C(=O)c1cn(C)c(=O)c2ccccc12)c1ccccc1	1.7	0.62
COC(=O)c1cc(OC)c(OC)cc1NS(=O)(=O)c1ccc(Cl)cc1	0.05	.
CCOC(=O)Nc1cc(C(=O)OCC)c(C)nc1C	-0.26	-0.07
CCNC(=S)NNc1ccccc1	-2.7	.
O=C(NCCN1CCCC1)C1CCCN(c2ncnc3c2nc2n3CCCCC2)C1 (stereo unspecified)	.	0.88
COc1ccc(NC(=O)CC2c3ccccc3Oc3ccccc32)c(OC)n1	-1.3	0.34
CCOc1ccc(S(=O)(=O)c2c[nH]c3ccc(C)cc3c2=O)cc1	-0.7	-0.44
O=C(NC1CCCCC1)C1=Cc2ccccc2OC=C1	-1.6	-0.38
CC(=O)Nc1c2n(c3ccc(F)cc13)CC(C)(C(=O)NC1CCCC1)N(c1ccc(F)cc1)C2=O (stereo unspecified)	.	0.74
CC(C)n1c(C2CC(=O)N(c3ccc(Cl)cc3)C2)nc2ccccc21 (stereo unspecified)	-1.3	-2.8
CC(C)[C@H](NS(=O)(=O)c1ccc(F)cc1)C(=O)O	0.51	1.8
Cc1cc(C)c(C2=NCCNC(C(F)(F)F)=C2)c(O)c1	-1.7	0.71
Cc1cc(NC(=O)c2cc3c(s2)-c2ccc(Cl)cc2S(=O)(=O)C3)no1	1.4	1.3
CC1CCc2c(sc3ncnc(N4CCCCCC4)c23)C1 (stereo unspecified)	-1.1	.
CCCNS(=O)(=O)c1ccc(-c2coc(C)n2)cc1	.	-0.86
CN(C)CCN(C(=O)C1COc2ccccc2O1)c1nc2c(F)cc(F)cc2s1 (stereo unspecified)	.	1.7
CCOc1ccccc1CNC(=O)C(C)N1C(=O)COc2ccc(C)cc21 (stereo unspecified)	1.4	.
Cc1ccc(C)c(N2CCN(S(=O)(=O)c3ccc4c(c3)C(C)(C)C(=O)N4)CC2)c1	.	-1
O=C1CC(c2ccc(Cl)cc2)CC2=C1C(c1cccc(O)c1)Nc1ccccc1N2 (stereo unspecified)	2.1	.
CN(Cc1ccccc1)S(=O)(=O)Cc1ccccc1	-1.1	-1.1
CC(=O)N1CCOc2ccc(S(=O)(=O)N3CC(C)CC(C)C3)cc21 (stereo unspecified)	-1.3	1.6
